# Source: PubChem BioAssay (several laboratories)
# HSV replic up – increases HSV replication in cells; actives 0.005% (n = 220,000); HSV replication augmentation in cells, fold increase; maximum fold increase; AID 1956;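 active = peak rise of 1.5-fold or more in the series; inconclusive = self-fluorescent or not available for retest; tested in PC3 cells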;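 note: first round at 10 µM; read as green reporter fluorescence; hits show the peak of a series up to 25 µM; 1 = signal of infected wells without compound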
# RGS16-Gao – modulates binding between human RGS16 and Galphao; bead-based flow cytometry RGS16-Galphao binding, fluorescence; actives lie on both sides; binding response (% of control), % at 10 µM; actives 0.38% (n = 220,000); AID 1441;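 active = below 25% or above 175%, edge rows of some plates excepted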;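 note: Galphao activated by GDP with aluminum fluoride before binding; 100% = wells without compound and 0% = beads without RGS; some results beyond the cut were filed as inactive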
# GALR2 agonist – activates the human galanin receptor 2. O43603. GALR2-expressing cells, agonist activation read-out. AID 803. activation, %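 (tested at 5 µM)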. actives 0.48% (n = 140,000);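 active = above mean plus 3 SD of all compounds, about 5% in these data, not always enough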;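 note: 0% = vehicle buffer wells and 100% = reference agonist at full effect; tested in CHO reporter cells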
# Insulin prom inh – TRM-6 insulin promoter activity inhibition. AID 1273. inhibition, % at 2 µM. TRM-6 cells (human fetal islet line), insulin promoter-eGFP reporter, imaging; reporter expression induced with tamoxifen. actives 0.9% (n = 130,000);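 active = inhibition above the mean plus 3 SD, with well images judged a real hit on visual review, cut at about 60% in these data, passing the limit was not always enough; inconclusive = inhibition over the cutoff but images rejected on review; inactive = inhibition not above the cutoff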
# PKD1 kinase inh – PKD1 (human) kinase inhibition. actives 0.056% (n = 200,000). PKD1 kinase fluorescence polarization assay. inhibition, %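 (about 10 µM by stock and volumes)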. Q15139;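 active = inhibition of 50% or more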;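 note: controls were vehicle for no effect and a reference inhibitor for full effect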
# Target sequence (Q15139 whole entry, looked up): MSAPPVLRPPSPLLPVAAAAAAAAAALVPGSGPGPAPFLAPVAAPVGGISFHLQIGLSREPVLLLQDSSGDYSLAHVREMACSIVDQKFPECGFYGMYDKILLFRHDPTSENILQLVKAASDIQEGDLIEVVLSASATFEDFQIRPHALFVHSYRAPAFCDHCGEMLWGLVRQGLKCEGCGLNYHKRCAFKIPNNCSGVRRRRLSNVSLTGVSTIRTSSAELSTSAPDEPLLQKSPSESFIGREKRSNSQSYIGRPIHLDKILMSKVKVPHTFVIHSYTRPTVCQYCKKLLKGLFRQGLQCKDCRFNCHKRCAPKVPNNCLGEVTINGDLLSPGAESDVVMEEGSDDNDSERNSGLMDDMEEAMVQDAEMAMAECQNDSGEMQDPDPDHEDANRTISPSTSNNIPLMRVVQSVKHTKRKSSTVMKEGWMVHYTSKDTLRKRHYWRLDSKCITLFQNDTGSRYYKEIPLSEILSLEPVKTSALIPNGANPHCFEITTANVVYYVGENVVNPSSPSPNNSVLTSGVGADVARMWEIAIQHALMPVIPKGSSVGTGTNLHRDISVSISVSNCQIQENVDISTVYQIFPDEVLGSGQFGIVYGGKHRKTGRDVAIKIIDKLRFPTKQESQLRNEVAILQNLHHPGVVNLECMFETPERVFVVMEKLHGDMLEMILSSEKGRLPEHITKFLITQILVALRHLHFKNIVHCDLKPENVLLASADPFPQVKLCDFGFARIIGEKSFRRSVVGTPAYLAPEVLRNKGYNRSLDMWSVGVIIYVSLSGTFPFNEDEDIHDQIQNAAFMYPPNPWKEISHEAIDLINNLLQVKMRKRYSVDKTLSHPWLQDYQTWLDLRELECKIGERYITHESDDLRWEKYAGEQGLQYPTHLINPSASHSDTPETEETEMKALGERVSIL
# Insulin prom inh cell count – further read-out of Insulin prom inh, marked with its call; normalized cell count, %; measured here: cell count, toxicity; reference of the scale not given here;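 cells exposed to compound for 48 h; stained nuclei by imaging scaled within each plate; lower means fewer cells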
# HSV replic up primary fold – further read-out of HSV replic up, marked with its call; fold increase; compound at 10 µM; measured here: primary screen fold increase 10 uM; tested in PC3 cells;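 GFP signal in the first replicate; 1 = infected wells without compound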
# * hit, by the source's call; i = inactive; u = inconclusive; x = not tested or not shown.
# Start of the listing, in advance, 3 compounds:
# Values run as follows: HSV replic up | HSV replic up primary fold | RGS16-Gao | GALR2 agonist | Insulin prom inh | Insulin prom inh cell count | PKD1 kinase inh
1) Cc1nc2sc(C(N)=O)c(N)c2c(C)c1CC(=O)c1ccccc1
  x | x | 80 | x | 38 | 95 | 8
2) Cn1nccc1C(=O)N/N=C/c1ccccc1[N+](=O)[O-]
  i | 1.1 | 96 | x | x | x | x
3) CN1CCN(S(=O)(=O)c2ccc(Oc3ccc(F)cc3Br)nc2)CC1
  i | 0.89 | 101 | x | x | x | x

# All compounds of this part, repeating the preview:
# Values run as follows: HSV replic up | HSV replic up primary fold | RGS16-Gao | GALR2 agonist | Insulin prom inh | Insulin prom inh cell count | PKD1 kinase inh
1) Cc1nc2sc(C(N)=O)c(N)c2c(C)c1CC(=O)c1ccccc1
  x | x | 80 | x | 38 | 95 | 8
2) Cn1nccc1C(=O)N/N=C/c1ccccc1[N+](=O)[O-]
  i | 1.1 | 96 | x | x | x | x
3) CN1CCN(S(=O)(=O)c2ccc(Oc3ccc(F)cc3Br)nc2)CC1
  i | 0.89 | 101 | x | x | x | x
4) FC(F)(F)c1cccc(Cn2nnnc2-c2cc(Cl)cc(Cl)c2)c1
  i | 0.9 | 100 | -1.7 | x | x | 1
5) O=C(CSc1nc2c(c(C(F)(F)F)n1)CCc1ccccc1-2)NCc1ccccc1
  u | x | 99 | -2.7 | 26 | 125 | 1
6) Cc1sc2nc(C(C)C)oc(=O)c2c1C
  i | 0.99 | 89 | -0.7 | 48 | 91 | 1
7) O=C(NCCN1C(=O)S/C(=C\c2ccc(Cl)c(Cl)c2)C1=O)c1ccc2c(c1)C(=O)N(Cc1ccncc1)C2=O
  i | 0.72 | 100 | -1.6 | 24 | 89 | -9
8) CCOC(=O)C1CCN(C/C=C/c2ccccc2OC)CC1
  i | 1.3 | 102 | -1.2 | -17 | 107 | -11
9) O=C(CSCc1cccc(Br)c1)NC1CC1
  i | 0.96 | 106 | -0.9 | 11 | 86 | -7
10) c1ccc(SCCc2ccncc2)cc1
  i | 0.92 | 103 | 0.1 | 45 | 98 | 2

# Compounds listed so far that have a thiophene ring, fused or not (two):
# Values run as follows: HSV replic up | HSV replic up primary fold | RGS16-Gao | GALR2 agonist | Insulin prom inh | Insulin prom inh cell count | PKD1 kinase inh
1) Cc1nc2sc(C(N)=O)c(N)c2c(C)c1CC(=O)c1ccccc1
  x | x | 80 | x | 38 | 95 | 8
6) Cc1sc2nc(C(C)C)oc(=O)c2c1C
  i | 0.99 | 89 | -0.7 | 48 | 91 | 1

# Laid out differently: results already given
5	O=C(CSc1nc2c(c(C(F)(F)F)n1)CCc1ccccc1-2)NCc1ccccc1
  HSV replic up = u | HSV replic up primary fold = x | RGS16-Gao = 99 | GALR2 agonist = -2.7 | Insulin prom inh = 26 | Insulin prom inh cell count = 125 | PKD1 kinase inh = 1
8	CCOC(=O)C1CCN(C/C=C/c2ccccc2OC)CC1
  HSV replic up = i | HSV replic up primary fold = 1.3 | RGS16-Gao = 102 | GALR2 agonist = -1.2 | Insulin prom inh = -17 | Insulin prom inh cell count = 107 | PKD1 kinase inh = -11
7	O=C(NCCN1C(=O)S/C(=C\c2ccc(Cl)c(Cl)c2)C1=O)c1ccc2c(c1)C(=O)N(Cc1ccncc1)C2=O
  HSV replic up = i | HSV replic up primary fold = 0.72 | RGS16-Gao = 100 | GALR2 agonist = -1.6 | Insulin prom inh = 24 | Insulin prom inh cell count = 89 | PKD1 kinase inh = -9
3	CN1CCN(S(=O)(=O)c2ccc(Oc3ccc(F)cc3Br)nc2)CC1
  HSV replic up = i | HSV replic up primary fold = 0.89 | RGS16-Gao = 101 | GALR2 agonist = x | Insulin prom inh = x | Insulin prom inh cell count = x | PKD1 kinase inh = x

# Next part.
# Values run as follows: HSV replic up | HSV replic up primary fold | RGS16-Gao | GALR2 agonist | Insulin prom inh | Insulin prom inh cell count | PKD1 kinase inh
11) Cn1c(=O)c(=O)n(C)c2cc(S(=O)(=O)Nc3ccc4c(c3)OCCO4)ccc21
  i | 0.81 | 113 | -0.4 | -26 | 59 | 4
12) COC(=O)c1c(N)sc2c1CCN(c1ncc(C(F)(F)F)cc1Cl)C2
  i | 1.1 | 103 | -1.1 | x | x | -1
13) COC(=O)c1ccc(COc2ccccc2/C=N/NS(=O)(=O)c2ccc(C)cc2)cc1
  i | 0.63 | 99 | -2.5 | x | x | 1
14) COC(=O)c1sccc1NC(=O)c1ccco1
  i | 0.83 | x | 1.0 | -169 | 51 | -4
15) CC(Oc1ccc(Cl)cc1)C(=O)/C=C/N(C)C (configuration not stated)
  i | 0.99 | 102 | -2.0 | -62 | 154 | -7
16) O=C(Nc1nccs1)c1ccc(N2C(=O)[C@@H]3[C@H](C2=O)[C@H]2C=C[C@@H]3C2)cc1
  i | 1 | 106 | x | x | x | x
17) Cc1cnc(NC(=O)c2c(-c3ccccc3)noc2C)s1
  i | 1.1 | 103 | x | x | x | x
18) CC(=O)Nc1cc(-c2nn(C)c(=O)c3ccccc23)ccc1N1CCOCC1
  x | x | 111 | -0.5 | 4 | 128 | 3
19) CCN1CCN(CC(=O)c2c[nH]c3ccc(C)cc23)CC1
  i | 0.92 | 173 | -0.3 | -21 | 113 | 3
20) COCCNC(=O)C(C)OC(=O)c1nsc(Cl)c1Cl (configuration not stated)
  i | 1 | 69 | -1.2 | -50 | 115 | 0
21) CCN(CC)C(=O)C(Cc1ccccc1)N1C(=O)c2ccccc2C1=O (configuration not stated)
  i | 1.1 | 99 | -1.8 | -4 | 60 | -6
22) c1cc(-c2noc(CCC3CCCC3)n2)ccn1
  i | 1 | 102 | -0.9 | -20 | 82 | -7
23) CC(C)Cn1c(N)c(C(=O)COC(=O)C2=COCCO2)c(=O)n(C)c1=O
  i | 0.92 | 110 | -2.0 | 56 | 73 | -4
24) Fc1cccc(Nc2ncnc3[nH]ncc23)c1
  i | 0.88 | 102 | x | x | x | -6
25) Cc1nn(C)c(C)c1S(=O)(=O)N(CC(=O)Nc1ccc2c(c1)OCO2)c1ccc(C(C)C)cc1
  i | 1 | 99 | -0.8 | x | x | -11
26) O=c1ccc(C(F)(F)F)cn1Cc1cc(=O)n2ccsc2n1
  i | 0.92 | 95 | x | 36 | 138 | 1
27) O=C(N/N=C/c1ccccn1)c1cc(C2CC2)[nH]n1
  i | 0.94 | 112 | x | x | x | -3
28) CC(C)(C)NC(=O)CCc1ncc(C(F)(F)F)cc1Cl
  x | x | 62 | x | -38 | 93 | -4
29) O=C(O)c1cccc(S(=O)(=O)N(Cc2ccccc2)c2ccccc2)c1
  i | 0.95 | 102 | x | x | x | -9
30) CCCCC(CC)C(=O)Nc1ccc(C)c(O)c1 (configuration not stated)
  i | 0.79 | 105 | x | x | x | 4
31) COc1ccc(-c2csc(N3CCC(C(N)=O)(N4CCCCC4)CC3)n2)cc1
  i | 0.85 | 96 | -2.0 | 21 | 112 | 4
32) O=C(CSc1nnc(Nc2ccccc2F)s1)Nc1cccc(S(=O)(=O)N2CCCCC2)c1
  i | 0.66 | 109 | -1.7 | -24 | 79 | 0
33) CCOC(=O)C1CCN(C(=O)COc2ccc(N(C)S(=O)(=O)c3cccs3)cc2)CC1
  i | 1 | 63 | -0.6 | 7 | 137 | -3
34) COc1ccc(S(=O)(=O)N2CCc3ccccc32)cc1NC(C)=O
  i | 0.77 | 102 | x | x | x | 5
35) CCC(C#CCN1CCOCC1)(CC)OCCC#N
  i | 1 | 103 | -3.0 | -3 | 121 | -2
36) COc1ccc(N2C3=C(C(=O)CC(C)(C)C3)C(c3cnn(C)c3)C3=C2CC(C)(C)CC3=O)cc1
  i | 1.1 | 101 | x | x | x | x
37) CCCCN(C)C(=O)c1cc2cc3cc(OC)ccc3nc2o1
  i | 0.84 | 103 | x | 42 | 70 | 0
38) Cc1cccc(-c2nc(=S)c3c(n2Cc2ccco2)CCCC3)c1
  i | 0.8 | 97 | -3.0 | -32 | 88 | -9
39) O=C(O)CCN1CCc2ccccc2C1c1cccs1 (configuration not stated)
  i | 0.97 | 100 | x | 61 | 86 | -1
40) c1ccc(Nc2nc(N3CCCCC3)nc(N3CCCCC3)n2)cc1
  i | 0.93 | 100 | -1.8 | 4 | 79 | 3
41) COc1cc(CC(NC(C)=O)C(=O)NC2CCN(C(=O)Nc3ccccc3Cl)CC2)cc(OC)c1 (configuration not stated)
  i | 0.94 | 102 | x | x | x | -5
42) COC(=O)c1ccc2c(=O)n(-c3ccc(OC)cc3)c(=S)[nH]c2c1
  i | 0.94 | 103 | x | x | x | -3
43) CN(C)CCCN(Cc1ccccc1)C(=S)Nc1ccc(SC(F)F)cc1
  i | 0.91 | 97 | x | x | x | 2
44) O=C(N1CCOCC1)N1CCN(c2ccccn2)CC1
  i | 0.94 | 95 | 0.1 | 53 | 129 | -8
45) CC(C)CCNC(=O)c1onc(CSc2ccncc2)c1C(=O)NCCC(C)C
  i | 0.75 | 103 | x | x | x | x
46) CCc1c(C)n([O-])c2c([n+]1=O)CCC2
  i | 1 | 107 | -2.6 | 25 | 106 | -5
47) COc1ccc(Cl)cc1N1C(=O)C2CCCN2C1c1sccc1C (configuration not stated)
  i | 0.99 | 109 | -1.3 | x | x | -4
48) O=C(Nc1ccccc1N1CCCCC1)c1ccc(Cl)c([N+](=O)[O-])c1
  i | 0.94 | 100 | x | x | x | -4
49) COc1cccc(C(C(=O)NC2CCCC2)N(Cc2ccc(C)cc2)C(=O)c2ccco2)c1OC (configuration not stated)
  i | 0.98 | 104 | -3.2 | -446 | 49 | -6
50) Cc1cc(=O)oc(C)c1C(=O)Nc1c(C)n(C)n(-c2ccccc2)c1=O
  i | 1.1 | 104 | -1.1 | -16 | 130 | -1

# Compounds from the list above that contain a furan ring, fused or not:
# Values run as follows: HSV replic up | HSV replic up primary fold | RGS16-Gao | GALR2 agonist | Insulin prom inh | Insulin prom inh cell count | PKD1 kinase inh
14) COC(=O)c1sccc1NC(=O)c1ccco1
  i | 0.83 | x | 1.0 | -169 | 51 | -4
37) CCCCN(C)C(=O)c1cc2cc3cc(OC)ccc3nc2o1
  i | 0.84 | 103 | x | 42 | 70 | 0
38) Cc1cccc(-c2nc(=S)c3c(n2Cc2ccco2)CCCC3)c1
  i | 0.8 | 97 | -3.0 | -32 | 88 | -9
49) COc1cccc(C(C(=O)NC2CCCC2)N(Cc2ccc(C)cc2)C(=O)c2ccco2)c1OC (configuration not stated)
  i | 0.98 | 104 | -3.2 | -446 | 49 | -6

# Additional records follow:
# Values run as follows: HSV replic up | HSV replic up primary fold | RGS16-Gao | GALR2 agonist | Insulin prom inh | Insulin prom inh cell count | PKD1 kinase inh
51) COc1ccc(C(=O)Nc2cccc(C(C)=O)c2)cc1S(=O)(=O)N1CCOCC1
  i | 0.94 | 105 | -1.3 | -36 | 101 | -13
52) CCn1c(SCC(=O)Nc2ccc3c(c2)OCO3)nc2c(c1=O)SC(C)C2 (configuration not stated)
  i | 0.89 | 103 | 0.4 | x | x | 11
53) O=c1nc2ccccc2c(NS(=O)(=O)c2ccc(Cl)cc2)n1-c1ccccc1
  i | 1.1 | 102 | -2.2 | 17 | 86 | -13
54) CC(=O)Nc1ccc(S(=O)(=O)NCC(=O)OCc2ccccc2)cc1
  i | 1 | 114 | -0.7 | 52 | 116 | -4
55) Clc1ccc(Cn2c(CN3CCCC3)nc3ccccc32)cc1
  x | x | 95 | -1.1 | -18 | 67 | -11
56) Cc1c(C(=O)O/N=C(\N)c2ccccn2)cccc1[N+](=O)[O-]
  i | 0.97 | 123 | x | x | x | x
57) Cc1ccc(-n2c(C)cc(C)c(C#N)c2=O)cc1C
  i | 0.98 | 99 | x | 0 | 105 | -6
58) CCC(c1nnnn1Cc1ccco1)N(CCN1CCOCC1)Cc1cc2cc(C)ccc2[nH]c1=O (configuration not stated)
  i | 0.99 | 103 | -2.7 | x | x | -12
59) O=C(O)Cc1sc(-c2ccccc2Cl)nc1-c1ccccc1
  i | 0.86 | 100 | x | x | x | 5
60) O=C(N/N=C/c1ccsc1)c1cc(-c2cccs2)nc2ccccc12
  i | 0.57 | 91 | -0.2 | x | x | 0
61) O=C(O)C1CCN(C(=O)COc2ccc(Br)cc2)CC1
  i | 0.95 | 107 | x | x | x | -2
62) COc1ccc(OC)c(NC(=O)C2CCN(c3ncccn3)CC2)c1
  i | 1 | 102 | 0.3 | x | x | -1
63) Cc1nn(-c2ccc(F)cc2)c(Cl)c1/C=N/NC(=O)c1cccc(S(=O)(=O)N2CCCC2)c1
  i | 0.84 | 98 | 0.1 | 14 | 166 | -12
64) O=C(Nc1ccccc1F)c1ccc([N+](=O)[O-])s1
  i | 0.78 | 96 | x | x | x | 1
65) COc1ccc(CNC(=O)CCN2C(=S)NC(C)(C)CC2C)cc1 (configuration not stated)
  i | 0.99 | 100 | x | x | x | 0
66) COc1ccc(C(O)C(CN2CCOCC2)c2ccccc2)cc1F (configuration not stated)
  i | 0.95 | 109 | -0.5 | 34 | 49 | -9
